Screening results from PubChem BioAssay.
VDR inhibitor – inhibitors of human vitamin D receptor; Potency, µM, for inactives: max response, negative = inhibition, usual class: inhibitors; AID 504847; actives 0.93% (n = 400,000); VDR-SRC2-3 peptide fluorescence polarization, 2 h; active = well fitted inhibition curve with a large enough effect; inconclusive = small, poorly fitted or top-dose-only effect, or another doubt; inactive = no such curve, though single readings can be large or run the other way; note: series mostly up to about 120 µM
Target sequence (P11473 whole entry, looked up): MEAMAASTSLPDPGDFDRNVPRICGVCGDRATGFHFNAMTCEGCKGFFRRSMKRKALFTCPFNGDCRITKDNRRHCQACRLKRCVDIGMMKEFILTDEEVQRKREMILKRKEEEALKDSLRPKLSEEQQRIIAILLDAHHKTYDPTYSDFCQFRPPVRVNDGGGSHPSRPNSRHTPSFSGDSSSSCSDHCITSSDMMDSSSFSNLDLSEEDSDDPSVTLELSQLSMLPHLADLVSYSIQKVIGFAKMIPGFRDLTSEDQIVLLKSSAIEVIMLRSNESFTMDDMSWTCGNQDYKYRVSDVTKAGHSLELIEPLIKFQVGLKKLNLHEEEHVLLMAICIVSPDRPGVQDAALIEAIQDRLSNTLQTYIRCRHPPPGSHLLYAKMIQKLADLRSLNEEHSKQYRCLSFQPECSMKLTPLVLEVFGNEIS
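VDR–SRC2-3 interaction, FP format. Cmpds 23 nl via pintool, brief spin, 2 h ambient incubation.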
An asterisk follows results filed as active; u = inconclusive; & = joins results of further samples. % is set by controls: 0 for no effect and ±100 for the full control effect; potency is the fitted concentration of half-maximal effect.

molecule	VDR inhibitor
CC(=O)Nc1cc(C(=O)N2CCOCC2)ccc1S(=O)(=O)c1ccc(C)cc1	7.3%
CC(=O)N(CCP(=O)(c1ccccc1)c1ccccc1)Cc1ccco1	23.3%
CC(C)c1nnc(SCC(=O)NC2CCCC2)n1C	-15.3%
COc1cccc(Cn2c(=O)c(CCc3ccccc3)nc3cnc(N(C)C)nc32)c1	-5.6%
CC(NC(=O)[C@@H](C)NC(=O)[C@@H]1Cc2ccccc2CN1C(=O)OC(C)(C)C)c1ccccc1 (stereo partly specified)	-5.0%
COc1ncnc(-c2ccccc2)c1-c1ccccc1	1.0%
CCOc1cc(C(=S)N2CCOCC2)ccc1OS(=O)(=O)c1ccc(OC)cc1	-0.7%
O=[N+]([O-])c1cc(Cl)c2cccnc2c1O	-4.7%
CC1CCN(C(=S)NC2CC3CCC2C3)CC1 (stereo unspecified)	-28.7%
COc1ccc(CC(=O)Nc2ccc3nc(Nc4ccc(OC)cc4)cc(C)c3c2)cc1	13.6%
CCOC(=O)C1CCC(CN(Cc2ccccc2)S(=O)(=O)c2ccc([N+](=O)[O-])cc2)CC1 (stereo unspecified)	-8.7%
CC(=O)NC12CC3CC(C1)CC(C(=O)N(C)CC(=O)Nc1ccc(F)c(F)c1F)(C3)C2	-11.2%
N#CC(=C1CCCC1)c1nc(-c2ccc(Cl)cc2)cs1	18.3%
COc1ccc2c(c1)[nH]c1c(=O)n(CCc3cnc[nH]3)cnc12	-7.9%
O=C1OC(OC(=O)c2cccnc2Nc2cccc(C(F)(F)F)c2)c2ccccc21 (stereo unspecified)	-0.2%
COc1ccc(CCNC(=O)C2CCN(S(C)(=O)=O)CC2)cc1OC	-4.0%
CC(=O)c1ccc(OCCCN2CCCCC2)cc1	15.3%
O=C(CN1CCC(NC(=O)C2CCCCC2)CC1)Nc1ccccc1	-5.0%
COc1ccc(OCCCC(=O)OC(C)C(=O)Nc2ccccc2[N+](=O)[O-])cc1 (stereo unspecified)	-8.0%
CCOC(=O)C1CCN(c2csc3ccc(C)cc3c2=O)CC1	0.1%
O=C1c2ccccc2C(=O)N1CCSc1nncs1	18.8%
Cc1nc2c(-c3ccccc3)c(C)nn2c(C)c1CC(=O)O	-7.4%
COc1ccc(S(=O)(=O)N2CCCCC2)cc1NC(=O)Cc1sc(C)nc1-c1ccc(F)cc1	-15.1%
CC(NC(=O)/C(C#N)=C/c1ccc(N2CCOCC2)cc1)c1ccccc1 (stereo unspecified)	-18.3%
COc1ccc(CCC(=O)NCCc2cn3c(C)csc3n2)cc1	-5.6%
COc1ccc(NC(=O)CSc2nc(-c3cccs3)cc(C(F)(F)F)n2)c(OC)c1	6.1%
COc1ccc(NC(=O)Cn2c(=O)cc(C)c3c(C)nn(-c4cccc(Cl)c4C)c32)cc1OC	6.2%
O=C(O)CC1CCC(=C(Cl)Cl)C1 (stereo unspecified)	u
CC(=O)c1ccc(S(=O)(=O)NCCC(=O)NCCc2c[nH]c3ccccc23)cc1	-12.3%
Cn1nnc2c(N3CCN(Cc4ccccc4)CC3)ncnc21	-5.3%
O=C(N/N=C\c1ccc(CN(Cc2ccc(Cl)cc2)S(=O)(=O)c2ccccc2)o1)C(=O)Nc1ccc(F)cc1	-22.0%
Cc1cc2cc(C)c(NCCNC(=O)c3ccccc3)nc2cc1C	-6.4%
COc1ccc(CNc2ncnc3nc[nH]c23)cc1	12.4%
COc1ccc(CN(C)C(=O)c2cccc(S(=O)(=O)N3CCc4ccccc43)c2)c(OC)c1	0.2%
O=C(CSc1oc(-c2cccs2)nc1S(=O)(=O)c1ccccc1)Nc1ccc(F)cc1	8.3%
Cc1nc2oc3ccc(F)cc3c(=O)c2cc1C(=O)O	-6.3%
COc1ccc(Nc2ccc3ccccc3c2)cc1	6.5%
COc1ccc(N2CCN(S(=O)(=O)c3csc(C(N)=O)c3)CC2)cc1	8.4%
CCCCOc1ccc(Cc2c(O)nc(SC)[nH]c2=O)cc1	-4.1%
CC1(C)CC(=O)N(CC(=O)NCc2ccccc2)c2ccccc2S1(=O)=O	8.0%

3 structures out of the list, ordered by SMILES length, descending:
molecule	VDR inhibitor
COc1ccc(N2CCN(S(=O)(=O)c3csc(C(N)=O)c3)CC2)cc1	8.4%
Cc1cc2cc(C)c(NCCNC(=O)c3ccccc3)nc2cc1C	-6.4%
O=C(O)CC1CCC(=C(Cl)Cl)C1 (stereo unspecified)	u

Of the compounds above, 5 have a Cl atom.
molecule	VDR inhibitor
O=[N+]([O-])c1cc(Cl)c2cccnc2c1O	-4.7%
N#CC(=C1CCCC1)c1nc(-c2ccc(Cl)cc2)cs1	18.3%
COc1ccc(NC(=O)Cn2c(=O)cc(C)c3c(C)nn(-c4cccc(Cl)c4C)c32)cc1OC	6.2%
O=C(O)CC1CCC(=C(Cl)Cl)C1 (stereo unspecified)	u
O=C(N/N=C\c1ccc(CN(Cc2ccc(Cl)cc2)S(=O)(=O)c2ccccc2)o1)C(=O)Nc1ccc(F)cc1	-22.0%

Further results
molecule	VDR inhibitor
CCOC(=O)NC(=O)CSc1nc(-c2ccc(C)c(C)c2)cn1-c1ccccc1	-12.1%
Cc1cccc(CCNC(=O)C2CCC(=O)N(Cc3ccc(Cl)cc3)C2)n1 (stereo unspecified)	-2.5%
C=CCSc1nc(Cc2ccc(Cl)cc2)nc2ccccc12	0.7%
COC(=O)C(Cc1ccccc1)NS(=O)(=O)c1ccccc1Br (stereo unspecified)	-10.9%&-9.8%
O=C(COc1ccc2c(-c3ccccc3)cc(=O)oc2c1)NCC1CCC(C(=O)O)CC1 (stereo unspecified)	-7.5%
CC(=O)c1cc(NC(=O)c2ccc(C)cc2)c(=O)oc1C	u
CCOc1ccc(CN2C(=O)c3ccccc3Sc3ccc(C(=O)NCCCN4CCOCC4)cc32)cc1	u
CS(=O)(=O)c1ccc(C(=O)OCC(=O)N2CC(=O)Nc3ccccc32)cc1[N+](=O)[O-]	u
Cc1ccccc1N1CC(C(=O)N2CCCCCC2)CC1=O (stereo unspecified)	-4.6%
CCCNc1nc(Nc2ccc(C)c(Cl)c2)c2cnn(C)c2n1	0.4%
CC(=O)N/C(=C\c1ccccc1)C(=O)OCC(=O)N1CCCCCC1	0.9%
Cn1cncc1COC(=O)c1ccc(Cl)cc1	-9.5%
COC(=O)/C=C1\NC(=O)C(C)S1 (stereo unspecified)	10.8%
O=S(=O)(/N=C(/Nc1cccc2ccccc12)c1ccccc1)c1ccccc1	-19.1%
CC(=O)NC(=S)Nc1ccc(N2CCOCC2)c(S(=O)(=O)Nc2cc(Cl)ccc2Cl)c1	26.1%
COc1ccc(NC(=O)Cn2c(CCC(=O)O)ccc2-c2ccccc2)cc1Cl	-5.2%
COC(C(=O)NCc1ccc(C)cc1)c1ccccc1 (stereo unspecified)	8.6%
COC(=O)c1cc(C)sc1NC(=O)CC1Nc2ccccc2NC1=O (stereo unspecified)	-4.7%
Cc1cccc(N2CCN(C(=O)c3ccc4nc[nH]c4c3)CC2)c1C	-10.1%
CCOc1c2ccc(C(=O)NCc3ccc4c(c3)OCO4)cc2nn1CC	-1.5%

The results go on.
Molecule | VDR inhibitor
CC(SCc1ccccc1)C(=O)Nc1ccccc1Br (stereo unspecified) | 11.6%
COC(=O)[C@@]12CCCCN1[C@H](c1ccc(-c3ccc(Cl)c(Cl)c3)cc1)[C@H]1C(=O)N(C)C(=O)[C@H]12 | -7.3%
O=C(O)CC1c2ccccc2CCN1C(=O)Nc1cc(Cl)ccc1Cl (stereo unspecified) | -2.0%
CC(O)(C#CCN1CCCCC1)c1ccccc1 (stereo unspecified) | -1.7%
CNC[C@H]1Oc2c(NS(=O)(=O)c3ccc(OC)cc3)cccc2C(=O)N([C@H](C)CO)C[C@H]1C | 3.7%
COc1cc(OC)cc(-c2c(C#Cc3ccsc3)c3cc(-c4ccc5[nH]ccc5c4)ccc3n2C)c1 | -21.1%
Cc1nc2sc3c(c2c(=O)n1NC(=O)CCl)CCCC3 | -18.7%
Cc1c(NC(=O)c2ccc(NS(=O)(=O)c3ccccc3)cc2)c(=O)n(-c2ccccc2)n1C | -25.2%
CCN(CC(=O)NC(C)(C)C)C(=O)c1ccc(Br)cc1 | -3.5%
CCCNC(=S)N1CCN(c2nc(-c3cccc(OC)c3)cs2)CC1 | 5.8%
COc1ccc(C=C(C(C)=O)C(C)=O)cc1OC | 7.0%
CCOC(=O)c1c(NC(=O)C2c3ccccc3Oc3ccccc32)sc(C(N)=O)c1C | -4.0%
Cc1c(N=NC2=C(O)CC(C)(C)CC2=O)c(=O)n(-c2ccccc2)n1C | u
C=Cn1ccnc1CC(O)c1ccc(OC)cc1 (stereo unspecified) | 8.4%
Cc1cc(=O)n2nc(N3CCC(C(=O)N4CCN(Cc5ccccc5)CC4)CC3)sc2n1 | 0.0%
COc1ccc(C(=O)NNC(=O)C2CC=CCC2)cc1 (stereo unspecified) | 1.8%
CC1CCCCC1NC(=O)c1cccc(N2C(=O)C3C4C=CC(C4)C3C2=O)c1 (stereo unspecified) | -7.9%
CCOc1cc(-c2ccccc2)nc(N)n1 | -13.7%
CCCn1c(N)c(C(=O)COc2ccc(Br)cc2F)c(=O)n(C)c1=O | -6.3%
CCCCCCSc1cccc(-c2nc3ccccn3c2NCc2ccccc2)c1 | -3.1%
Cc1cc(S(=O)(=O)N(C)CCc2ccccc2)ccc1-n1cnnn1 | u
Cc1ccc(SCCNC(=O)/C=C/c2ccccc2Cl)cc1 | -0.9%
Cn1c(SCC(=O)N2CCOCC2)nnc1-c1ccc(NC(=O)c2ccccc2F)cc1 | 17.3%
COc1cccc(/C=N/NC(=S)Nc2cccc(S(=O)(=O)N(C)C)c2)c1 | 79.4µM*
Cc1ccc(S(=O)(=O)c2nnn3c2nc(NCc2ccccc2)c2sccc23)cc1 | -2.6%
Cc1ccc(C)c(-c2nnc(NC(=O)c3ccco3)o2)c1 | -8.0%
Nc1c(Cl)ncnc1N1CCN(c2ncnc(Cl)c2N)CC1 | -8.6%
CCc1ccc(Nc2n[n+](-c3ccccc3)c(-c3ccc(C(=O)O)cc3)s2)cc1 | 2.1%
COc1ccc2[nH]c(=O)c(C(c3nnnn3C3CCCC3)N3CCN(Cc4ccc5c(c4)OCO5)CC3)cc2c1 (stereo unspecified) | 9.5%
Cc1cc(CC(C)C)n(-c2nc3ccccc3c(=O)n2OCC(N)=O)n1 | -15.2%
O=C(NCC(c1ccco1)N1CCN(c2ccccc2)CC1)c1ccc2c(c1)OCO2 (stereo unspecified) | -7.2%
COc1ccc(OC)c(-c2noc(N3CCN(c4cc(C)ccc4C)CC3)n2)c1 | 4.3%
Cc1cc(CNC(=O)c2cccc(OC3CCN(S(=O)(=O)N(C)C)CC3)c2)on1 | 3.2%
COCn1c(-c2cccc(Br)c2)nc2ccccc21 | -18.9%
COC(=O)c1ccc(OCCN2C3=NCCN3c3ccccc32)cc1 | -9.9%
CCOC(=O)NC1(C(F)(F)F)C(=O)N(Cc2ccccc2)C2=C1C(=O)CC(C)(C)C2 (stereo unspecified) | 8.8%
O=C(N/N=C\c1ccc(-c2ccccc2[N+](=O)[O-])o1)C1COc2cc3ccccc3cc2O1 (stereo unspecified) | u
Cc1ccc(C(=O)OCC(=O)NC(=O)c2cccn2C)cc1[N+](=O)[O-] | u
Cc1ccc(C)c(S(=O)(=O)Nc2ccc(C(=O)NCCCN3CCOCC3)cc2)c1 | -10.3%
CCOC(=O)CSc1ncnc2c1cnn2-c1ccc(C)cc1C | -2.4%

Quoted at random: 2 records from the list
Molecule | VDR inhibitor
CCOC(=O)CSc1ncnc2c1cnn2-c1ccc(C)cc1C | -2.4%
Cc1ccc(C)c(S(=O)(=O)Nc2ccc(C(=O)NCCCN3CCOCC3)cc2)c1 | -10.3%

Going on with the list.
Molecule | VDR inhibitor
Cc1c(Br)c([N+](=O)[O-])nn1CC(=O)NCc1ccccn1 | 2.1%
CCOc1cccc(-c2c(C(=O)N/N=C/c3ccoc3)nnn2-c2nonc2N)c1 | u
OCCC1CN(Cc2cnc(-c3ccc(Cl)cc3)nc2)CCN1C1CCCCC1 (stereo unspecified) | -3.7%
CCc1ccc(C(=O)NCC2COc3ccccc3O2)o1 (stereo unspecified) | -2.0%
Cc1cccc(Nc2ccc3nonc3c2[N+](=O)[O-])c1C | -9.6%
CCOC(=O)c1sc(N)nc1C(C)C | 4.3%
COc1cccc(CN(C)C(=O)c2csc3c2CCCC3)c1OC | 4.6%
Cc1cc(C(=O)NCC(=O)Nc2c(C)cccc2C)c(C)o1 | 4.5%
CCOC(=O)c1ccc(Nc2nc3ccccc3n3c(C)nnc23)cc1 | 18.7%
CCOC(=O)Nc1ccccc1N1C(=O)c2ccccc2C1=O | -3.5%
Cn1cc(Br)c(C(=O)NN2C(=O)C3C(C2=O)C2C=CC3C23CC3)n1 (stereo unspecified) | -11.2%
NC(=O)c1c(NC(=O)c2cc(-c3ccc(F)cc3)on2)sc2c1CCCC2 | 56.2µM*
COc1ccc(CCNC(=O)C2CCN(S(=O)(=O)c3ccc(F)cc3)CC2)cc1 | -8.4%
COc1cc(C(C)=O)ccc1OCC(=O)Nc1ccc(Cl)c(S(=O)(=O)N2CCOCC2)c1 | -16.6%
N#Cc1cccc(-c2ccc3ncnc(NCc4cccs4)c3c2)c1 | 1.5%
Cc1cccc(-c2cc3nc(-c4ccccc4)cc(=O)n3[nH]2)c1 | 15.7%
O=C(NCCCN1CCOCC1)c1cnccn1 | 9.7%
CCC1(C)Cc2c(sc3nc(SC)n(-c4ccc(C)cc4)c(=O)c23)CO1 (stereo unspecified) | -13.0%
Cc1cccc(CNC(=O)CN2C(=O)CCn3nc(-c4cn(C)c5ccccc45)cc32)c1 | 5.0%
CCOCc1c(C(=O)NCC(c2ccco2)N2CCCC2)oc2ccccc12 (stereo unspecified) | -13.0%
Cc1csc2c(=O)sc(NC(=O)c3cccs3)nc12 | 30.8%

The list is partial; the hit share may differ from the screen's.
